NPYLR7 ag – mosquito NPYLR7 agonism; AID 1259423; actives 0.15% (n = 270,000); HEK293T NPYLR7/Galpha15, GCaMP6s calcium fluorescence; activation, % at 10 µM; in the data active = activation above about 40%;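 also: 0% = vehicle and 100% = reference agonist at the receptor; some compounds past the cut are filed as inactive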
NPYLR7 ag max-min – recorded beside NPYLR7 ag, whose call it bears; activation, %; measured here: Max-Min RFU normalised activation; some inactives read as strong as hits;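 span of the calcium signal over five minutes; 0% = vehicle and 100% = native peptide agonist; compound fluorescence can raise it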
Starred values were filed as active, the others as inactive; & = joins results of further samples. Not all compounds are listed; rates above refer to the full screens.

Values run as follows: NPYLR7 ag	NPYLR7 ag max-min
> O=C(/C=C/c1ccc(OC(F)(F)F)cc1)N1CCN(Cc2cc(=O)c(OCc3cccc(F)c3)co2)CC1
  18	14
> COc1cccc(NC(=O)N(Cc2ccc(OC)c(OS(C)(=O)=O)c2)C(C)C)c1
  -6	-7
> CNS(=O)(=O)CCNC(=O)c1ccccc1Cc1ccc(Cl)cc1
  6	-7
> Cc1cccc(Cn2c(=O)c(C(=O)NC(C)c3ccccc3)nn(-c3ccccc3F)c2=O)c1 (centres undefined)
  13	18
> CCc1cnc(C)nc1N1CCC(N(CC)C(C)=O)C1 (centres undefined)
  16	11
> O=C(CSc1nc2sc3c(c2c(=O)n1Cc1ccco1)CCCC3)N1CCNC1=O
  -1	-1
> CC(=O)Nc1ccccc1NC(=O)CN1CCC(O)(c2ccc(C)cn2)CC1
  -3	-7
> CSc1ccc(C=NNc2ncc(Cl)cc2Cl)cc1
  -2	-4
> CC(Oc1cccc(F)c1)C(=O)N1CCN(c2ccc3nnc(-c4ccco4)n3n2)CC1 (centres undefined)
  3	9
> CCOc1ccc(CN2CCN(CC3CC3)CC2CCO)cc1 (centres undefined)
  1	-4
> CCCCc1ccc(N2C(=N)CS/C2=C(/C#N)S(=O)(=O)c2ccccc2)cc1
  -4	-9
> COc1ccc(-n2nc3c(c2NC(=O)C(C)C)CSC3)cc1
  -1	-3
> Cc1nc2c(c(N3CCCCC3)n1)CN(C(=O)c1cc(Cl)cc(Cl)c1)CC2
  -7	-17
> CNC(=O)NC(=O)CSc1nc(-c2ccc(Cl)cc2)cn1-c1ccccc1
  6	5
> COCc1nc2nccc(-c3ccccc3OC)n2n1
  -13	-20
> COc1ccc(NC(=O)Nc2ccc3nc([C@H]4C[C@H](O)[C@@H](CO)O4)[nH]c3c2)cc1OC1CCCC1
  18	20
> CCC(=O)Nc1c(-c2cc(=O)oc3c(C)cc(C)cc23)oc2ccccc12
  1	-2
> CCc1c(C(=O)CN(C)Cc2c(F)cccc2Cl)[nH]c(C)c1C(C)=O
  4	-4
> CCn1nnc2c(=O)n(CC(N)=O)cnc21
  0	26
> O=c1c2ccccc2cnn1Cc1coc(-c2ccc(F)cc2)n1
  17	16
> O=C1CC(c2ccsc2)c2cc3cn[nH]c3cc2N1 (centres undefined)
  5	3
> CC1CN(c2cc(Oc3cccc(F)c3)ncn2)CCN1C(=O)c1ccccc1Cl (centres undefined)
  4	6
> CCCn1c2c(=O)[nH]c(=O)n(C)c2n2c(-c3cc(Br)ccc3OC)nnc12
  6	2
> COC(=O)c1ccc(-c2noc(CN3CCC(OCc4cccnc4)CC3)n2)cc1
  2	-1
> CCOC(=O)C1(CCc2ccccc2)CCCN(C(=O)c2ccc(OC)o2)C1 (centres undefined)
  0	-4
> Cc1cc(C)nc(SCc2cc(=O)c(OC(=O)c3cc([N+](=O)[O-])ccc3Cl)co2)n1
  -13	-12
> COc1ccc(N2CCN(c3cc(C(=O)NC4CCCCC4)ncn3)CC2)cc1OC
  -3	-9
> C=CCn1nnnc1NCc1ccc(OCC)cc1
  1	-1
> Cc1ccc(S(=O)(=O)N2CCN(c3cc(=O)n4oc(C)cc4n3)CC2)cc1
  9	3
> CC(C)COc1cccc(OCC(=O)O)c1
  0	-2
> CS(=O)(=O)CCC(NC(=O)c1ccccc1Br)C(=O)OCc1ccccc1 (centres undefined)
  2	4
> COc1ccc(Cl)cc1NC(=O)C1Nc2cc(C)ccc2S(=O)(=O)N1 (centres undefined)
  3	8
> C(=C\c1nn2c(CCc3ccccc3)nnc2s1)/c1cccs1
  2	-2
> CCn1nnc2c(SCc3ccccc3Cl)ncnc21
  1	21
> COc1ncc(-c2ccc(C)c3ncccc23)c(OC)n1
  -5	-5
> Cc1ccc(C2(O)CCN(Cc3ccc(-c4ccn[nH]4)o3)CC2)nc1
  33	22
> C/C=C(\C)C(=O)N1CCC(c2nc(-c3ccc(Cl)cc3F)no2)CC1
  2	0
> O=C(CS(=O)Cc1c(F)cccc1Cl)Nc1ccc2c(c1)OC(F)(F)O2 (centres undefined)
  -2	-4
> OC1CN=C2CCCc3c2n(c2ccccc32)C1 (centres undefined)
  12	5
> CC(C)c1ccc(Nc2cc3c(cn2)cc(-c2ccccc2)n3C)cc1
  5	22
> CCn1c(CN2CCCC(C(=O)Nc3ccc(-n4ccnc4C)cc3)C2)nc2ccccc21 (centres undefined)
  -5	-10
> CC(C)n1ncc2cc3c(nc21)C(=O)OCC3
  1	1
> Cc1nn(C)c(=O)c(C(=O)NCc2cccc3c2OCCO3)c1C
  6	1
> Cc1cccnc1-n1cnc(-c2ccccc2)c1
  1	1
> COCC(=O)N1CCCN(Cc2cc3cccc(C)c3[nH]c2=O)CC1
  14	11
> CCOC(=O)C[C@@H]1CCN(C(=O)NC2CCCCC2)C[C@@H]1CCN1CCC[C@H]1C(N)=O
  -8	-16
> Cc1nc(C)n(Cc2ccc3c(c2)CCC3)n1
  -1	-6
> CNCC(=O)NCC1CCN(c2ccccc2C)C1 (centres undefined)
  17	17
> c1coc(CNc2ccc3c(c2)ncn3C2CCCCC2)c1
  0	2
> O=C1N(CC2CCC2)CCCC1(O)CN1CCC2(CC1)OCCO2 (centres undefined)
  -1	-2

Structural class: the compounds so far containing two or more sulfur atoms.
Values run as follows: NPYLR7 ag	NPYLR7 ag max-min
> O=C(CSc1nc2sc3c(c2c(=O)n1Cc1ccco1)CCCC3)N1CCNC1=O
  -1	-1
> CCCCc1ccc(N2C(=N)CS/C2=C(/C#N)S(=O)(=O)c2ccccc2)cc1
  -4	-9
> C(=C\c1nn2c(CCc3ccccc3)nnc2s1)/c1cccs1
  2	-2

More records.
Values run as follows: NPYLR7 ag	NPYLR7 ag max-min
> CC(c1ccc2c(c1)OCCO2)N(C)Cc1nnc(CC2CCNCC2)n1C (centres undefined)
  21	6
> Cn1c(O)c(N=Nc2ncnc3sc4c(c23)CCC4)c2ccccc21
  -1	-5
> CCOC(=O)CC1CCCCN1Cc1nc(Cc2ccccc2F)no1 (centres undefined)
  14&1	9&0
> CC(C)c1cc(C2CCN(C(=O)c3nc(=O)[nH]c4ccccc34)CC2)[nH]n1
  -7	-6
> CCC(CO)NC(=O)c1c(O)nc2ccccn2c1=O (centres undefined)
  -1	8
> CCOCCCn1c(SCc2cc(F)c(Cl)cc2Cl)nc2cc(C(=O)OCC)ccc21
  1	-6
> CCn1nnc2c(N3CCN(S(C)(=O)=O)CC3)ncnc21
  0	5
> CCOc1ccc(NC(=O)c2c(C)c(-c3ccc(OC)cc3)nc3ccccc23)cc1
  13	15
> CCOCCc1nnc(NC(=O)c2cccc(Cl)c2)s1
  -3	-7
> COC(=O)c1c(-c2ccccc2Cl)csc1NC(=O)CCl
  -3	-3
> O=c1c2ccccc2cnn1CN1CCN(S(=O)(=O)c2ccc(Cl)cc2)CC1
  12	14
> CC(=O)c1sc(-c2ccc(OC(C)C(=O)N3CCCCCC3)cc2)nc1C (centres undefined)
  9	5
> N#Cc1cccc(COc2ccc(NC(=O)C3CCCO3)cc2F)c1 (centres undefined)
  5	2
> O=C(NC(c1cccs1)C1CCCC1)c1ccc2c(c1)OCCO2 (centres undefined)
  3	1
> CC(C)N(C)S(=O)(=O)NCC1CCCc2ccccc21 (centres undefined)
  3	-1
> CCOCCCN(Cc1nc(C(=O)OC)cs1)C(=O)c1cc(Cl)cc(Cl)c1
  -4	8
> O=C(c1ccc([N+](=O)[O-])o1)N1CCN(c2nc3nccc(-c4cc(Cl)ccc4Cl)n3n2)CC1
  3	-1
> COc1cn(CC(=O)NCCc2ccccc2)c(CN2CCC(C)CC2)cc1=O
  1	0
> CCOC(=O)c1sc(NC(=O)/C=C/c2ccccc2)nc1-c1ccccc1
  -2	1
> Cn1cc(S(=O)(=O)Oc2ccccc2)c(=O)n(C)c1=O
  1	0
> CCOC(=O)c1cc(I)c(-c2cc(C)no2)n1C
  -7	-8
> O=C(CC1=CCCCC1)N1CCC(n2c(-c3ccccc3)nc3ccc(F)cc32)CC1
  8	9
> O=C(NC1CC(=O)N(CC2CCCCC2)C1)C(=O)c1ccccc1 (centres undefined)
  19	6
> Cc1ccc(F)c(S(=O)(=O)NC(=O)C2(C)CCN2C(=O)Cc2cccs2)c1 (centres undefined)
  1	0
> CN(Cc1ccncc1)Cc1nc(-c2cccnc2)no1
  3	-9
> C/C=C/c1cc(C(=O)OCc2cc(C)no2)cc(OC)c1OC
  6	-2
> COc1cccc([C@@H]2CCN(C3CCSCC3)C[C@H]2O)c1
  8	4
> C#CCOCC(O)CN(Cc1ccc(OC)c(OC)c1)C1CC1 (centres undefined)
  18	31
> CC(=O)Nc1ccc(CN2C(=O)C3(CCC3)ON=C2c2ccccc2)cc1
  2	-2
> Cc1noc(C)c1CSCc1nc(N)nc(N(C)C)n1
  5	3
> O=C(c1cccs1)N1CCN(Cc2cc3c(cc2O)CCC3)CC1
  11	10
> C=C1/C(=C\C=C2/CCC[C@]3(C)[C@@H]([C@H](C)/C=C/[C@@H](O)C4CC4)CC[C@@H]23)C[C@@H](O)C[C@@H]1O
  -8	-15
> COC(=O)c1ccccc1C(=O)N1CCCC(Nc2ccc(C)c(C)c2)C1 (centres undefined)
  -1	-8
> COc1ccc(-c2nnc(NC(=O)c3cccs3)s2)cc1
  -7	-11
> C=C(C)Cn1c(=O)c2c(nc3n2CCCN3c2ccc(OC)cc2)n(C)c1=O
  4	3
> Cc1nn(-c2ccccc2)c(C)c1CC(=O)N1CCOc2ccc(CN3CCCCC3CO)cc2C1 (centres undefined)
  -5	-7
> Fc1ccc(-c2cc(C(F)(F)F)nc(-n3cc(Br)cn3)n2)cc1
  9	1
> N#Cc1c(N)n(-c2ccc(F)cc2)c2nc3ccccc3nc12
  0	0
> COc1ccc(C2=NN(c3nc(-c4ccccc4)c4cc(Cl)ccc4n3)C(c3ccc([N+](=O)[O-])cc3)C2)cc1 (centres undefined)
  -8	-6
> CC(NCC(=O)Nc1ccc(N2CCCC2=O)cc1)c1ccc(Cl)cc1Cl (centres undefined)
  14	12
> CCOC(=O)c1nn(-c2ccccc2)c(=O)cc1OCc1ccccc1C
  10	8
> C=CCNc1nc2cc(-c3ccc(C(=O)N4CCOCC4)cc3)sc2c(=O)n1C
  10	9
> COc1cc(Nc2ccc(NC(=O)Nc3ccccc3C(F)(F)F)cc2)nc(C)n1
  10	3
> O=C1/C(=C/c2ccc(Br)o2)SC(=Nc2ccccc2)N1c1ccccc1
  -6	-9
> CN(Cc1cc(-c2ccccc2)no1)Cc1coc2ccccc2c1=O
  17	8
> Cn1cccc1CC(=O)NNC(=O)NC1CCCCC1
  -15	-17
> COc1ccc(OCCn2c(C3CC(=O)N(c4cccc(OC)c4)C3)nc3ccccc32)cc1 (centres undefined)
  5	9
> CCc1cc2c(=S)[nH]cnc2s1
  2&-5	5&-12
> CCOC1CCCN(S(=O)(=O)c2ccccc2)C1 (centres undefined)
  -4	-2
> O=S(=O)(NCC1(c2ccccc2)CC1)N1CCCCCC1
  6	3

Next structures
Values run as follows: NPYLR7 ag	NPYLR7 ag max-min
> COc1ccc(CNC(=O)CNC(=O)c2ccc(SC)cc2)c(OC)c1
  -8	-16
> O=C(CNC(=O)/C=C/c1ccco1)N=Nc1c(O)n(Cc2ccccc2)c2ccccc12
  -1	-8
> Cc1cccc(-c2cccc(CNC(=O)NCCS(C)(=O)=O)c2)c1
  8	3
> COc1cc(OC)cc(C(=O)N2CCCC(N3CCN(c4ccccc4F)CC3)C2)c1 (centres undefined)
  1	11
> Cc1nc(C)n(CCCNC(=O)c2cccc(CC3CCNCC3)c2)n1
  -3	-11
> CNc1ccc(S(=O)(=O)NC)cc1[N+](=O)[O-]
  2	6
> COCc1noc(-c2ccc(N3CCCOCC3)nc2)n1
  4	1
> CC(C)Cc1noc(CN(C)C(=O)c2ccccc2C2CCNC2)n1 (centres undefined)
  2	0
> COc1cccc(C2Nc3ccccc3N=C3CC(C)(C)CC(=O)C32)c1OC (centres undefined)
  2	3
> CCn1c(O)c(C=NN=C2CCCC2)c2ccc(C3=NNC(=O)CC3)cc21
  -2	6
> COc1ccc(-c2nc3c(n2O)CCc2nonc2-3)cc1
  0	1
> O=C1CC(c2ccco2)Cc2nc(NC3CC3)ncc21 (centres undefined)
  -1	-5

In the list so far, eleven have a thiophene ring, fused or not:
Values run as follows: NPYLR7 ag	NPYLR7 ag max-min
> O=C(CSc1nc2sc3c(c2c(=O)n1Cc1ccco1)CCCC3)N1CCNC1=O
  -1	-1
> O=C1CC(c2ccsc2)c2cc3cn[nH]c3cc2N1 (centres undefined)
  5	3
> C(=C\c1nn2c(CCc3ccccc3)nnc2s1)/c1cccs1
  2	-2
> Cn1c(O)c(N=Nc2ncnc3sc4c(c23)CCC4)c2ccccc21
  -1	-5
> COC(=O)c1c(-c2ccccc2Cl)csc1NC(=O)CCl
  -3	-3
> O=C(NC(c1cccs1)C1CCCC1)c1ccc2c(c1)OCCO2 (centres undefined)
  3	1
> Cc1ccc(F)c(S(=O)(=O)NC(=O)C2(C)CCN2C(=O)Cc2cccs2)c1 (centres undefined)
  1	0
> O=C(c1cccs1)N1CCN(Cc2cc3c(cc2O)CCC3)CC1
  11	10
> COc1ccc(-c2nnc(NC(=O)c3cccs3)s2)cc1
  -7	-11
> C=CCNc1nc2cc(-c3ccc(C(=O)N4CCOCC4)cc3)sc2c(=O)n1C
  10	9
> CCc1cc2c(=S)[nH]cnc2s1
  2&-5	5&-12
